Env fusion inh = blocks HIV Env-driven cell-cell fusion | actives 1.1% (n = 360,000) | HeLa-JRFL Env/CEM21 cell fusion, luciferase | inhibition, % at 12.3 µM;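 active = mean replicate inhibition score of at least 50 and every replicate individually at or above 50; inconclusive = only one of the two criteria met; inactive = mean below 50 and not all replicates reaching 50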;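 also: 0% = plate neutral controls and 100% = maraviroc near 300 nM; one replicate is shown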
UUG fidelity = modulators of start codon recognition fidelity in yeast. S. cerevisiae UUG-firefly luciferase reporter, luminescence/redox ratio. activity score, % at 18.7 µM. actives 0.13% (n = 350,000);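 active = replicate mean at a twofold rise or more, about +100% in these data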;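 also: firefly luciferase made from a UUG start codon reports start codon fidelity; reporter light over untreated wells divided by growth signal over untreated wells; some hits fall short of that in this replicate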
Rce1 inh = blocks yeast Ras-converting enzyme; actives 0.27% (n = 290,000); yeast membranes, quenched prenylated peptide cleavage fluorescence; Q03530; calls only;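 active = fall in fluorescence gain of 50% or more versus controls, with final raw signal at or below 3038400; inconclusive = same 50% fall but final raw signal above 3038400; inactive = fall in fluorescence gain under 50%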;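 also: plate controls were neutral control wells for no effect and wells lacking membranes for full effect; tested at 10 µM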
Target sequence (Q03530 whole entry, looked up): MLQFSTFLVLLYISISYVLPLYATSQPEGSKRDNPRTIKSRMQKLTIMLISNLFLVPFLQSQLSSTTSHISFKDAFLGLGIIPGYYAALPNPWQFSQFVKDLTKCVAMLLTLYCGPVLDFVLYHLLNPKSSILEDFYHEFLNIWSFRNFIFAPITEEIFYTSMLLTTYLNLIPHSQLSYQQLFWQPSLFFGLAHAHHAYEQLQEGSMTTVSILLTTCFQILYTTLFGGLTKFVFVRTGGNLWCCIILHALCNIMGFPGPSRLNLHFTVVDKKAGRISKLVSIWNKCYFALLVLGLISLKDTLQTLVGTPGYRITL
eIF4H FP inh = inhibitors of RNA binding by human eIF4H. Q15056. eIF4H fluorescence polarization binding assay. inhibition, % at 35 µM. actives 0.94% (n = 290,000);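 active = 50% or more with normal probe brightness, or confirmed in later tests; inconclusive = above 50% with abnormal brightness, or retests that disagree; inactive = below 50% or failed in later tests; about a fifth of its hits are not listed in these tables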;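 also: calls also rest on retests at 20 µM and on dose response follow-up; 0% = protein and probe with vehicle and 100% = probe without protein; strong numbers were not always called active; many hits fall short of the cut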
MT1-MMP act inh = inhibitors of human MT1-MMP activation. P50281. GFP/RFP ratio change, % at 20 µM. HT1080 RFP-PRO-GFP cells, GFP/RFP ratio fluorescence, overnight; percent of plate control window, DMSO zero. actives 0.061% (n = 360,000);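 active = GFP/RFP ratio change of at least 30% with cell ATP level not reduced by more than half and red fluorescence within 50% of control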; also: strong numbers were not always called active
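Material: RFP-PRO-GFP reporter HT1080 cells. Dosing: single-point 20 µM compound, 1% DMSO. Controls: DMSO and RFP-L50D-GFP cell wells. Timing: cells overnight before dosing, compound overnight, 37 °C, 5% CO2. Measure: GFP/RFP fluorescence ratio.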
PABP FP inh = PABP-poly(A) binding inhibition; PABP-poly(A) RNA binding, fluorescence polarization; inhibition, % at 35 µM; actives 1% (n = 290,000); AID 2014;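 active = 50% or more with normal probe brightness, or confirmed in later tests; inconclusive = above 50% with abnormal brightness, or retests that disagree; inactive = below 50% or failed in later tests; about a fifth of its hits are not listed in these tables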;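 also: calls also rest on retests at 20 µM and on dose response follow-up; controls were probe without protein and protein plus probe with vehicle; some compounds called inactive have numbers as strong as hits; many hits fall short of the cut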
CSC inhib = blocks cancer stem cells; cancer stem cell-like cells viability, luminescence; inhibition, % at 7.5 µM; actives 1.1% (n = 300,000); AID 2717;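 active = mean at 75% or more and at least half the replicates too; inconclusive = mean and replicates disagree; tested in HMLE shEcad cells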;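 also: 0% = median of negative and 100% = median of positive control wells; the first replicate is given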
eIF4H FP inh retest = recorded beside eIF4H FP inh, whose call it bears; inhibition, %; compound at 20 µM; confirmation average;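 mean of two retest wells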
PABP FP inh retest = recorded beside PABP FP inh, whose call it bears; inhibition, %; compound at 20 µM; confirmation repeats;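 mean of two retest wells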
MT1-MMP act inh RFP = also measured in MT1-MMP act inh; calls as there; RFP signal change, %; measured here: RFP expression control read;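 0 = vehicle wells; hits needed this value within 50% of zero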
Active calls of the source: *; i = inactive; ? = inconclusive; / = not tested or not shown; & = joins results of further samples; ! = not confirmed by another sample.

SMILES	Env fusion inh	UUG fidelity	Rce1 inh	eIF4H FP inh	MT1-MMP act inh	MT1-MMP act inh RFP	PABP FP inh	CSC inhib	others
C[C@@]12C(=O)Nc3cc(F)ccc3C(=O)N1[C@H]1c3ccccc3OC[C@@H]1[C@@H]2c1ccccc1	/	-11.1	/	/	-20.1	-12.6	/	12.2
O=C(NCCN1CCCC1=O)Nc1ccccc1	/	-7.6	i	4.0	0.8	4.1	1.5	-1.8
COCCNC(=S)N/N=C(\C)c1ccc(Cl)s1	-18.5	/	i	6.7	2.1	-2.8	-0.5	-5.1
C/C(CC(=O)Nc1ccc([N+](=O)[O-])cc1)=N\NC(=O)c1ccccc1[N+](=O)[O-]	8.5	-18.5	i	-4.4	3.1	3.4	5.0	-4.5
CCc1cccc(CC)c1-n1c(SCC(=O)c2c(N)n(C)c(=O)n(C)c2=O)nnc1-c1cccnc1	-1.2	1.0	i	2.0	1.5	0.5	-3.9	0.3
COC(=O)c1c(N)sc(C(C)=O)c1C	-61.8	-16.3	i	4.1	/	/	11.2	-7.4
Cc1ccccc1NC(=O)CSc1nnc(NC(=O)c2ccco2)s1	-22.4	-18.3	i	2.1	-0.5	3.3	7.9	-0.1
NC(=O)c1c(NC(=O)C2COc3ccccc3O2)sc2c1CCN(Cc1ccccc1)C2 (configuration not stated)	-30.2	3.7	i	?	-112.2	-6.1	10.7	39.5
CC(C)CNC(=O)C(=O)NCC1OCCCN1S(=O)(=O)c1ccc2c(c1)OCCO2 (configuration not stated)	-1.4	0.1	i	-4.7	0.3	4.7	3.8	5.3
CC1(C(=O)NS(=O)(=O)c2cccc(OC(F)F)c2)CCN1C(=O)Cc1cccs1 (configuration not stated)	-5.3	27.3	/	/	2.5	6.4	/	/
Cc1ccsc1C(=O)NCCc1ccc(S(N)(=O)=O)cc1	-25.1	-17.9	i	4.4	-0.4	2.6	3.4	7.1
O=C(/C=C/c1ccc([N+](=O)[O-])cc1)NCc1ccc2c(c1)OCO2	-0.1	/	i	-4.9	-0.7	-0.2	-9.1	-0.8
COC(=O)c1ccc(NS(=O)(=O)NC(=O)c2c[nH]c3ccccc23)cc1	1.6	/	i	-6.3	-0.9	2.4	1.2	13.6
O=C(Cc1c[nH]c2ccccc12)NCc1ccc(Cl)cc1	-1.2	-4.2	i	1.5	-1.2	0.4	2.4	1.0
C=CCNc1ncnc2ccc(Br)cc12	92.8*!	16.8&-19.2&-7.4	i	-1.0	-6.1	-9.5	-0.9	-8.0
O=C1CCC(=O)N1CCC(=O)N(C(=O)NC1CCCCC1)C1CCCCC1	3.6	-7.9	/	/	-3.4	0.3	/	/
Cc1ccc(CNC(=O)COC(=O)c2cccc(S(=O)(=O)N3CCCCC3)c2)cc1	/	-11.4	/	/	2.1	0.7	/	-1.4
O=C1c2ccccc2/C(=C\c2ccc3[nH]ccc3c2)N1c1ccccc1	-64.6	-27.9	/	/	2.0	-9.8	/	/
CCC(=O)N(Cc1cc(=O)[nH]c2ccccc12)c1ccccc1	9.2	-6.8	i	-1.2	1.5	2.2	5.4	0.5
Nc1nc(SCc2ccccc2Cl)c2ncn(C3OC(CO)C(O)C3O)c2n1 (configuration not stated)	-22.8	-17.6	/	/	-0.4	0.0	/	/
Cc1c(C)c2ccc(O[C@@H]3O[C@H](CO)[C@@H](O)[C@H](O)[C@H]3O)c(C)c2oc1=O	-10.8	14.7	i	-7.5	0.6	3.6	-8.1	-8.6
C/C(=N\Nc1ccc(S(N)(=O)=O)cc1[N+](=O)[O-])c1cccs1	-9.0	-11.4	i	16.9	9.6	2.0	2.0	10.5
CCCNC(=O)C12CCC(C)(C(=O)C1Br)C2(C)C (configuration not stated)	3.8	-11.5	/	1.5	-3.2	-2.3	0.9	-17.1
N#C[C@H]1C(O)C(O)c2ccccc2N1C(=O)c1ccccc1 (some centres not stated)	/	-8.5	i	/	3.8	2.9	/	1.6
C/C(=N\NC(=O)c1cc(-c2ccc(C)s2)[nH]n1)c1ccco1	-44.9	/	/	2.0	2.2	5.1	-8.6	21.4
COc1ccccc1CCc1nnc(CCC(=O)NCC(C)Oc2cccnc2)o1 (configuration not stated)	2.2	/	i	2.7	-3.3	0.1	-8.3	-7.7
Cc1nnc(SCC(=O)N2CCc3ccccc3C2)s1	-106.2	/	i	4.3	0.7	0.0	2.5	-10.9
CSc1ccc(Cl)c(C(=O)NC2CCCC2)c1	/	-11.7	i	6.2	-4.6	-0.9	3.8	-5.0
COc1ccc(N/N=C(/C#N)S(=O)(=O)c2nsc(C)c2C#N)cc1	/	0.3	i	4.2	-7.6	4.3	20.1	2.7
O=C(Oc1ccnc2cc(Cl)ccc12)N1CCOCC1	/	-18.9	i	0.7	4.2	0.2	1.1	3.3
Cc1ccc2c(COn3nnc4ccc(S(=O)(=O)N(C)C)cc43)cc(=O)oc2c1C	/	/	i	-12.6	/	/	-0.5	/
COc1ccc(/C=N/N2CCOCC2)cc1Cn1cc([N+](=O)[O-])cn1	0.7	/	i	1.1	6.0	2.8	6.8	-3.7
COc1cccc(C(=O)Nc2nnc(S(=O)(=O)N(C)Cc3ccc(F)cc3)s2)c1	-0.8	-8.1	i	2.3	1.6	-5.5	-3.0	27.0
Oc1ccccc1C=NNC(=S)NN=Cc1ccccc1O	-8.2	-36.7	/	/	3.3	0.6	/	/
O=C(COC(=O)CCc1ccc(S(=O)(=O)N2CCOCC2)cc1)Nc1ccccc1OC(F)F	-17.3	-11.9	/	/	-2.4	-1.4	/	0.4
Cc1ccnc(NS(=O)(=O)c2ccc(NC(=O)C3COc4ccccc4O3)cc2)n1 (configuration not stated)	2.0	/	i	9.0	6.6	3.6	-3.9	-2.0
Cn1cc(CCC(=O)NC2CC(C)(C)Cc3c2cnn3-c2ccc(F)cc2)cn1 (configuration not stated)	-11.3	0.5	i	4.5	2.1	4.0	-1.0	/
O=C1C2C3C=CC(O3)C2C(=O)N1Nc1ccccc1 (configuration not stated)	4.4	-22.0	/	/	-3.2	2.1	/	/
N#Cc1cc(S(=O)(=O)c2ccccc2)c(N)[nH]c1=O	-5.0	-20.9	i	-5.8	-3.6	2.2	8.5	-11.1
Cc1cccc(NC(=O)CSc2nnc(NC(=O)C3CC3)s2)c1C	-9.0	-9.6	/	-12.0	3.1	1.2	11.2	2.4

Retrieved by structure from the entries so far (six):
SMILES	Env fusion inh	UUG fidelity	Rce1 inh	eIF4H FP inh	MT1-MMP act inh	MT1-MMP act inh RFP	PABP FP inh	CSC inhib	others
CCc1cccc(CC)c1-n1c(SCC(=O)c2c(N)n(C)c(=O)n(C)c2=O)nnc1-c1cccnc1	-1.2	1.0	i	2.0	1.5	0.5	-3.9	0.3
O=C(/C=C/c1ccc([N+](=O)[O-])cc1)NCc1ccc2c(c1)OCO2	-0.1	/	i	-4.9	-0.7	-0.2	-9.1	-0.8
COC(=O)c1ccc(NS(=O)(=O)NC(=O)c2c[nH]c3ccccc23)cc1	1.6	/	i	-6.3	-0.9	2.4	1.2	13.6
Cc1ccsc1C(=O)NCCc1ccc(S(N)(=O)=O)cc1	-25.1	-17.9	i	4.4	-0.4	2.6	3.4	7.1
CCCNC(=O)C12CCC(C)(C(=O)C1Br)C2(C)C (configuration not stated)	3.8	-11.5	/	1.5	-3.2	-2.3	0.9	-17.1
Oc1ccccc1C=NNC(=S)NN=Cc1ccccc1O	-8.2	-36.7	/	/	3.3	0.6	/	/

The list goes on:
SMILES	Env fusion inh	UUG fidelity	Rce1 inh	eIF4H FP inh	MT1-MMP act inh	MT1-MMP act inh RFP	PABP FP inh	CSC inhib	others
CCOC(=O)C1=C(COC(=O)/C=C/c2cccc(OC)c2OC)NC(=O)NC1C (configuration not stated)	-0.8	7.9	i	-5.9	1.5	2.4	-9.2	-6.2
Cc1cc(Cl)c2oc(C(=O)NC(C)c3ccncn3)c(C)c2c1 (configuration not stated)	-13.6	-17.2	i	-14.0	-1.7	-5.0	-10.0	8.4
N#Cc1ccc(CC(C(=O)O)N2Cc3ccccc3C2=O)cc1 (configuration not stated)	-4.8	-18.1	i	-4.7	-8.0	2.6	-5.0	4.8
CCCCNC(=O)CC(NS(=O)(=O)c1ccc(C)cc1)c1ccco1 (configuration not stated)	-28.7	-0.6	i	-13.6	-3.1	4.0	0.3	-8.9
CC1CN(C(=O)COC(=O)c2cc(=O)[nH]c3ccccc23)CC(C)O1 (configuration not stated)	-1.2	-3.7	/	/	-0.2	2.4	/	/
Cn1ccc2c(N3CCCCC3)cc3c(c21)C1CCC3C1 (configuration not stated)	21.2	1.2	/	/	5.1	4.4	/	/
COC(=O)c1nn(-c2ccccc2)c(=O)cc1Oc1ccc(Cl)cc1	121.7*	-23.3	i	1.7	-4.3	-4.1	8.7	4.8
COc1ccc(CC(=O)NC2CCN(CC(=O)N3CCCc4ccccc43)CC2)cc1OC	16.4	-1.3	i	1.4	-1.9	0.7	10.2	-4.3
Cc1ccc(-c2cc(C(=O)N3CCN(C4CCS(=O)(=O)C4)CC3)c3ccccc3n2)cc1 (configuration not stated)	/	-3.9	/	/	4.8	3.2	/	11.4
Cc1ccc(-c2noc(C3CCCN(C(=O)c4ccc(F)cc4F)C3)n2)cc1 (configuration not stated)	19.7	-4.7	i	-5.6	-1.2	-10.4	-12.9	-5.1
CC(/C=N/Nc1nnc2c(n1)[nH]c1ccccc12)=C\c1ccco1	/	-8.6	/	73.0	3.9	-3.6	24.5	-4.4	eIF4H FP inh retest=0.5;PABP FP inh retest=-6.7
Cc1ccc(Nc2cc(C)c(O)c(C)c2)cc1	-34.6	-4.0	i	-0.1	-7.3	3.1	-0.9	24.7
Cc1c(S(=O)(=O)Nc2cc(Cl)ccc2Cl)c(=O)n(C)c(=O)n1C	7.4	7.0	i	-6.9	-8.7	2.5	-4.8	-8.1
CCN(CC(=O)NC(=O)NC1CCCC1)Cc1ccccc1	-4.9	/	i	/	2.6	1.1	/	-5.5
CCOc1ccccc1C(=O)Nc1cccc(-c2ccc3nncn3n2)c1	-21.2	-20.6	i	0.0	4.6	-2.5	-11.7	14.0
O=C(Nc1ccc(C(=O)N2CCOCC2)cc1)c1cnn2c(C(F)F)cc(-c3ccccc3)nc12	-1.0	/	i	18.1	-1.8	-13.2	2.5	-6.1
CC(=O)Nc1ccc(NC(=O)COc2cccc3ccccc23)cc1	5.3	-5.4	/	/	0.5	1.6	/	/
N#CC1=C(N)N(c2ccc(F)cc2)C(=O)C1	/	-15.3	i	50.0*	-7.9	7.9	97.6*	-14.3
CCN=C(NS(=O)(=O)c1ccc(Br)cc1)c1ccc(Cl)cc1	17.4	-19.7	i	-9.0	5.3	8.1	-5.7	41.3
Cc1cc(=O)oc2c(C)c(OC(C)C(=O)NC3CCN(Cc4ccccc4)CC3)ccc12 (configuration not stated)	-7.9	-13.7	i	5.2	4.2	1.2	0.6	4.5
C/C(=N/N=C/c1ccc(N(C)C)cc1)c1ccccc1	-47.6	/	i	-4.4	1.1	0.8	10.9	1.7
CCn1c(NCc2ccc(N(C)C)cc2)nc2ccccc21	-72.2	-20.3	i	-5.7	1.1	-7.6	-7.9	-12.2

Compound activity from PubChem.
